# Screening data from PubChem BioAssay.
# gsp ag – gsp mutant agonism | gsp mutant cells, cAMP HTRF, 30 min; control for the full effect not named in the record | Potency, µM (highest dose often 76.9 µM), for inactives: at the highest dose activation (cAMP increase), usual class: activators | hit rate 0.13% among 340,000 | AID 624287; active = well fitted activation curve with a large enough effect; inconclusive = small, poorly fitted or top-dose-only effect, or another doubt; inactive = no such curve, though single readings can be large or run the other way; cell line not stated here;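 note: phosphodiesterase inhibitor Ro 20-1724 added with compounds to block cAMP breakdown; potency is the fitted concentration of half-maximal effect; nearly all actives have a fitted effect of over 60% in size; about a fifth of the inactives were tested at one dose only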
#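 Cells in DMEM/10% FBS with G418 were pretreated with compounds in DMSO plus […] (300 uM stock) for 30 min at 37C. cAMP was measured by HTRF (cAMP-d2 plus anti-cAMP antibody-K) after 30 min at room temperature.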
# Menin-MLL FL inh – menin-MLL binding inhibition, fluorescein peptide; Fluorescence polarization, fluorescein-MLL peptide displacement from menin; FP activity change, % at 61.4 µM; 290,000 tested, under 10 active; AID 1766; inconclusive = falling polarisation curve, or a change in total fluorescence; inactive = total fluorescence flat and polarisation flat or rising; no compound was filed as active; the % refers to the polarisation; negative = inhibition;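 note: % of control where 0% means no effect; inhibitors lower the polarisation; unlabelled MLL peptide was the positive control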
# gsp antagonist – antagonists of gsp mutant (McCune-Albright syndrome); gsp-mutant cells, cAMP HTRF, 30 min; control for the full effect not named in the record; Potency, µM (highest dose often 76.9 µM), for the others: top-dose activity change, negative = inhibition, usual class: inhibitors; hit rate 0.4% among 340,000; AID 624288; active = falling curve of any shape with a large fitted effect; inconclusive = falling curve, mostly with a smaller effect; inactive = flat or rising curve; cell line not stated here;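 note: intracellular cAMP measured with PDE inhibitor Ro 20-1724 present during compound exposure; potency is the fitted concentration of half-maximal effect; % is set by controls: 0 for no effect and ±100 for the full control effect; nearly all actives have a fitted effect of over 65% in size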
#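 Measurement of cellular cAMP by homogeneous time-resolved fluorescence following a 30 min compound exposure at 37C. The PDE inhibitor […] was present throughout; the assay buffer was DPBS with 0.05% BSA and 0.005% Tween 20.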
# TRPML1 ag – agonists of human TRPML1 channel; AID 624414; activation, % (test concentration not listed); hit rate 0.12% among 410,000; TRPML1-expressing cells, Ca2+ dye fluorescence, FDSS; host cell line not named in the record; reference of the full effect not given here; Q9GZU1; in the data active = activation above about 50%; inconclusive = about 30% to 50%; inactive = below about 30%; note: 0% is about no effect; the text of the record puts the active cut at 80%
# Target sequence (Q9GZU1 whole entry, looked up): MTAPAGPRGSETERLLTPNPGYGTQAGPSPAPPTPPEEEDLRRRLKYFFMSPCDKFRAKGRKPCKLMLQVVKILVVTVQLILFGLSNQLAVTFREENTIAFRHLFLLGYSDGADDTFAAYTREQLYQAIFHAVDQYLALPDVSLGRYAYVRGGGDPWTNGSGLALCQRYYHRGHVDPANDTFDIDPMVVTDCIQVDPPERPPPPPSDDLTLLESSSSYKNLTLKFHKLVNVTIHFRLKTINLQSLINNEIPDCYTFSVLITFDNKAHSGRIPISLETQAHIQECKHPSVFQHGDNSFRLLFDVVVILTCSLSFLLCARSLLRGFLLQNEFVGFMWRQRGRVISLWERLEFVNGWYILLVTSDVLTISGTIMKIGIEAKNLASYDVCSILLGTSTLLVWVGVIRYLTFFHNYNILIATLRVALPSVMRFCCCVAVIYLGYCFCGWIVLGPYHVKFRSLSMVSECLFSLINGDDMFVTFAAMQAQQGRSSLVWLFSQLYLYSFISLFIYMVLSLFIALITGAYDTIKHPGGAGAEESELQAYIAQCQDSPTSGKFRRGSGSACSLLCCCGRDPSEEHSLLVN
#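 In this qHTS format, compounds were pin-transferred onto Ca8-dye-loaded TRPML1-DL cells induced with Tet overnight, and intracellular Ca2+ fluorescence was recorded kinetically for 110 s after a 10 s baseline. A subsequent 4uM final 54-4 (EC80) addition followed by a second 110 s read served as the antagonist phase.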
# TRPML1 blocker – inhibitors of human TRPML1 channel | hit rate 0.02% among 390,000 | TRPML1-inducible cells, Ca2+ dye fluorescence, FDSS; stronger effect = lower value; inhibition of EC80 agonist-evoked calcium signal | activity change, negative = inhibition, % (no concentration beside the values); in the data active means activity change below about -50%; inconclusive means about -30% to -50%; inactive means above about -30%;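 note: stimulus is agonist 54-4 at its EC80 concentration; % is set by controls: 0 for no effect and ±100 for the full control effect; compound concentration not given in the record; the text of the record puts the active cut at -80%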
#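 Tet-induced TRPML1-DL cells loaded with Ca8 no-wash calcium dye were read kinetically on FDSS. Compound addition was followed by EC80 agonist 54-4 (4 uM final); inhibition was read over 110 s.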
# ClpP mod – qHTS Assay for Activators of ClpP; ATP-dependent Clp protease proteolytic subunit (Bacillus subtilis (strain 168)), P80244; purified B. subtilis ClpP, FRET peptide cleavage, 20 min; Potency, µM (titrated, usually from 57.5 µM), for inactives: at the highest dose activity change, negative = active; hit rate 1.9% among 340,000; AID 651965, 2013; active = well fitted falling curve with a large enough effect; inconclusive = small, poorly fitted or top-dose-only effect; inactive = no such curve, though single readings can be large or run the other way; note: potency is the fitted concentration of half-maximal effect; the source files actives as falling curves though it sought activators and does not explain the sign; nearly all actives have a fitted effect of over 65% in size; many hits overshoot -100%
# Target sequence (P80244 whole entry, looked up): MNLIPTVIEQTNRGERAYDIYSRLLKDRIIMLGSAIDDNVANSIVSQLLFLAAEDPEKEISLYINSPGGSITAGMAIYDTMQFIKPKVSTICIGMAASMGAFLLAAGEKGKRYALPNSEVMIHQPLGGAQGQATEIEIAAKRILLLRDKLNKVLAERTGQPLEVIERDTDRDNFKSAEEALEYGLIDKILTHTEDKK
#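 Buffer: 100 mM Tris/HCl pH8, 100 mM KCl, 0.05% low protease BSA, 2.5% glycerol, 0.01% Tween-20. ClpP 10 microg/mL final; 20 min RT; delta FRET normalized to ADEP and DMSO controls.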
# * hit, by the source's call; ? = inconclusive; / = not tested or not shown; & = joins results of further samples; [ ] = dose if it differs, or a comment.
SMILES,gsp ag,Menin-MLL FL inh,gsp antagonist,TRPML1 ag,TRPML1 blocker,ClpP mod
COc1cc(OC)nc(/N=C/NO)n1,-4%[15.4 µM],4.9,8%,0.4,-16,-2.5%
O=C(CSc1nnnn1-c1ccccc1)NC(=O)NCc1ccco1,4%,-0.7,0%,0.9,-7,-8.6%
COc1ccc(CCNC(=O)CSc2n[nH]c(N)n2)cc1,4%,0.1,0%,0.7,10,/
CN1CCN(c2ccc(NC(=O)c3ccccc3Br)cc2)CC1,-26%,1.7,-4%,-0.2,51,-1.6%
CC(C)(C)c1ccccc1OCCCCCn1ccnc1,-18%[15.4 µM],0.2,2%,2.1,47,/
CC(C)C[C@H]1CN=C(Nc2ccccc2)N1CCc1ccc(F)cc1,/,/,8%,?,6,0.9%
CCCCN1C(=O)c2ccc(C(=O)NC3=NCCS3)cc2C1=O,12%,-1.5,-6%,-0.7,-3,-2.2%
O=C1COc2ccc(C(=O)CSc3nnc(Cc4cccs4)n3-c3ccccc3)cc2N1,-5%,-1.7,-5%,2.1,16,-2.1%
O=C1c2cccnc2-c2ncccc21,8%,-0.5,13%,0.3,11,0.0%
COc1ccc(/C=N/NC(=O)c2sccc2C)c2ccccc12,?,/,-10%,-0.7,-9,3.7%
Nc1nc(-c2ccc(Cl)cc2)cc(C(F)(F)F)n1,0%,5.2,2%,-0.6,8,-24%
O=C(N=NC(=O)c1ccc2c(O)n(C3CCCCC3)c(O)c2c1)c1cccnc1,-45%[inhibitor],2.5,-15%,0.2,-1,0.3%
O=[N+]([O-])c1ccccc1S(=O)(=O)Nc1cccc2cccnc12,2%[15.4 µM],-5.8&-0.9,-6%,1.9&3.1&-1.1,-10&1,0.4%&0.2%
COc1ccc(NC(=O)C2CCCN(c3ncnc4onc(C)c34)C2)cc1OC (stereo unspecified),/,/,/,-1.0,16,2.5%
COc1ccc(C)cc1S(=O)(=O)N1CCCC(N2CCOCC2)C1 (stereo unspecified),-43%[inhibitor],-8.0,0%,-0.6,6,-0.6%
COc1ccc(CNc2oc(-c3ccc(COc4ccccc4C)o3)nc2C#N)cc1,/,/,/,0.7,38,4.3%
COc1ccc(C(=O)Nc2cc(S(=O)(=O)N3CCCCC3)ccc2OC)cc1,-41%[inhibitor],/,-2%,0.9,7,-5.0%
Cc1sc2ncnc(Nc3ccc(O)cc3)c2c1C,3%[15.4 µM],1.1,-2%,3.4,-3,/
Cc1ccc(-n2c(=O)c3c(c4cc(C)ccc4n3C)n(CC(=O)NCc3ccccc3)c2=O)cc1,/,/,/,0.8,4,?
COc1ccc(S(=O)(=O)Nc2ccc(-n3cnnn3)cc2)cc1[N+](=O)[O-],8%,/,-17%,-0.1,-1,1.4%
Cc1cc2cc3c(=O)[nH]c(=O)cc-3n(CC(O)C(O)C(O)CO)c2cc1C (stereo unspecified),4%,/,/,0.7,-5,-3.2%
CC(C)(O)C#Cc1ccc(C(=O)N2CCCC(CCC(=O)NCc3ccccc3F)C2)cc1 (stereo unspecified),7%,/,-8%,-0.5,22,-2.3%
O=C(CCN1c2ccccc2Sc2ccccc21)OCc1nnc(-c2ccccc2)o1,?,2.8,-36%,2.4,-6,-4.8%
COc1cc(CNC(=O)OCC(C)C)cc(OC)c1OC,13%,2.3,0%,-0.8,-2,0.7%
Cc1nc2c(C(=O)NCCc3ccc(Cl)cc3)c[nH]n2c(=O)c1Cc1ccc(Cl)cc1,/,/,/,0.4,15,3.8%
COc1ccc2nc(NC(=O)c3cccnc3SC)sc2c1,-49%[inhibitor],3.4,-18%,-0.5,32,/
COc1ccc(C2CC(c3ccc(OC)cc3)n3nc(NC(=O)c4cccs4)nc3N2)cc1 (stereo unspecified),6%,-1.7,-14%,0.6,-13,?
COc1cc(-c2nnc(SCC(=O)Nc3ccc(C(=O)O)cc3)o2)cc(OC)c1OC,-8%,/,12%,0.9,-16,/
CC1=NN(c2ccc(C(=O)O)cc2)C(=O)CC1,-54%[15.4 µM],-1.5,-6%,-0.4,2,-2.9%
Cc1cc(Nc2ccccc2)n(-c2ccc(C(=O)O)cc2)n1,-1%,-6.3,-13%,-0.9,7,/
O=C(CN1C(=O)C2CC=CCC2C1=O)Nc1ccc(Br)cc1 (stereo unspecified),5%,/,-4%,0.0,-1,-0.8%
CC1(C)Cc2ccccc2C2=C(C(=O)N3CCCCCC3)C(=O)C(=O)N21,-38%,-0.1,5%,0.8,10,-1.0%
Cc1ccc(N2CCN(C(=O)c3c(C)oc4ncn(CC(C)C)c(=O)c34)CC2)c(C)c1,/,/,/,8.1,33,0.3%
COc1cc(C(O)c2nc(/C=C/c3ccccc3)cs2)ccc1F (stereo unspecified),/,/,/,-0.1,2,-13%
COc1ccc(NC(=O)c2cc3cc(C)ccc3n2C)cc1,/,/,/,-0.7,-10,4.4%
Cc1cccc2c(=O)cc(C)n(CC(=O)N3CCOCC3)c12,-4%,7.3,-4%,0.1,-6,-11%
COc1cccc(OCCn2c(-c3ccc(Cl)cc3)nc3ccccc3c2=O)c1,/,/,/,-0.9,6,-17%
c1ccc(-n2ncc3c(NCc4ccco4)ncnc32)cc1,-32%[inhibitor],-0.9,19%,-0.8,11,-1.2%
O=C(CCCCCNC(=S)Nc1ccccc1)C[N+](=O)[O-],-40%[inhibitor],-0.5,-2%,0.0,-8,-1.7%
C=C(C)[C@@H]1CC=C(CN2CCN(Cc3ccccc3)CC2)CC1,10%,/,6%,0.2,-7,/
COCCCn1c(=N)c(C(=O)NC2CCCC2)cc2c(=O)n3cccc(C)c3nc21,/,/,/,-0.8,3,4.4%
Cc1c(-c2nc(-c3ccccc3)no2)nnn1-c1ccc(F)c(Cl)c1,/,/,/,0.1,4,-2.6%
COc1ccc(OC)c(NC(=O)CC2SC(=Nc3ccc(F)cc3)N(CCC3=CCCCC3)C2=O)c1 (stereo unspecified),12%,1.3,-10%,-0.4,2,-0.6%
NC(=O)c1nn(-c2ccccc2)c(=O)cc1O,-22%,-0.8,-1%,0.2,11,0.8%
CC1CCCCC1NS(=O)(=O)CCNC(=O)c1ccc2c(c1)OCO2 (stereo unspecified),-10%,/,10%,1.0,5,-12%
O=C(Nc1nc(-c2ccncc2)cs1)c1ccco1,28%,4.1,6%,0.3,0,2.7%
O=C(CSc1ccc2nnc(CCNC(=O)c3ccc(F)cc3)n2n1)NCC1CCCO1 (stereo unspecified),9%[15.4 µM],/,7%,-0.3,-12,-20%
CC1CCCN(C(=O)C2CCN(CCCc3ccccc3)CC2)C1 (stereo unspecified),12%,-0.8,10%,-0.1,-8,1.7%

# Overlap with the part before: 2 compounds, then new ones.
SMILES,gsp ag,Menin-MLL FL inh,gsp antagonist,TRPML1 ag,TRPML1 blocker,ClpP mod
O=C(CSc1ccc2nnc(CCNC(=O)c3ccc(F)cc3)n2n1)NCC1CCCO1 (stereo unspecified),9%[15.4 µM],/,7%,-0.3,-12,-20%
CC1CCCN(C(=O)C2CCN(CCCc3ccccc3)CC2)C1 (stereo unspecified),12%,-0.8,10%,-0.1,-8,1.7%
COC(=O)[C@H](Cc1ccccc1)NC(=O)Cn1cnc(C(=O)Nc2ccc(C)c(C)c2)n1,/,/,3%,-0.9,26,-0.1%
O=C(Cc1ccc(Cl)cc1)Nc1ccc2nn(-c3ccccc3)nc2c1,/,/,/,-0.3,22,?
CCOc1ccccc1NC(=O)COC(=O)C12CC3CC(CC(O)(C3)C1)C2,-2%,/,-19%,-0.4,7,2.4%
COc1ccc2c(c1)CC/C(=C/c1ccccn1)C2=O,29%,-8.6,-8%,1.6,-13,-1.5%
Cc1ccc2c(=O)[nH]c(Nc3nc(C)cc(-c4ccccc4)n3)nc2c1,0%,-1.3,8%,/,/,-0.9%
Cc1ccc(S(=O)(=O)NC(c2ccccc2)C(C)C(=O)n2nc(C)cc2C)cc1 (stereo unspecified),23%,2.3,-15%,0.6,-1,-4.6%
O=C(Nc1ccccc1-c1nnc(SCc2ccc(Cl)cc2Cl)o1)c1ccccc1,10%,2.0,-5%,0.7,-26,?
Cc1cccc(NC(=O)CSCC(=O)Nc2cc(S(=O)(=O)N3CCOCC3)ccc2N2CCCC2)c1,-2%,2.2,-5%,0.3,-8,1.0%
COc1cccc(-c2cc(C(F)(F)F)nc(-n3cc(Cl)cn3)n2)c1,-9%,5.4,-13%,4.8,36,32µM*
O=C(COC(=O)c1ccco1)c1ccc2ccccc2c1,7%,2.2,-2%,3.2,-23,?
CC(=O)NC(NC(=S)Nc1ccc(C)cc1C)C(Cl)(Cl)Cl (stereo unspecified),-26%,-3.8,7%,-0.6,21,-0.9%
O=C(CN1C(=O)NC2(CCCC2)C1=O)Nc1ccccc1N1CCCCC1,2%,/,8%,0.0,3,-6.4%
CCn1c2ccccc2c2cc(NC(=O)c3cc(OC)cc(OC)c3)ccc21,24%,3.4,5%,0.2,11,?
O=C(CCCC(=O)N(CC(=O)NC1CCCCC1)Cc1ccco1)Nc1ccccn1,8%,-2.5,2%,-0.1,2,-11%
CCN(CC)CCNC(=O)c1nn(-c2ccc(Cl)cc2)c2c1CCc1cc(OC)ccc1-2,42%,/,2%,0.0,0,?
O=C(CSc1nc(=O)[nH]c2c1CCC2)NCc1ccccc1,/,/,/,-1.1,21,-4.3%
O=C1CC(c2ccccc2)=NN1c1ccccc1,-19%,/,-8%,1.2,5,/
COc1ccccc1NC(=O)c1ccc2c(c1)N(CC#N)C(=O)C(C)(C)O2,0%[15.4 µM],-10.0,?,0.7,5,/
CN(Cc1ccco1)C(=O)Cn1cc(S(=O)(=O)N2CCCC2)c(S(=O)(=O)N2CCCC2)c1,?,-4.2,13%,-0.4,-9,/
O=C(CN1CCCCC1)NC1CCc2cc3c(cc21)CCC3 (stereo unspecified),26%[15.4 µM],/,-2%,0.0,2,-0.1%
OCCN1CCN(c2cc(-c3ccccc3)c3ccccc3n2)CC1,-26%,7.7,-2%,0.4,7,-3.3%
COc1cc2ccnc(Cc3cccc(OC)c3OC)c2cc1OC,2%[15.4 µM],-2.2,-7%,0.1,1,/
N/C(=N\OC(=O)CCc1ccccc1)c1cccc(Br)c1,-58%[inhibitor],-0.5,-7%,7.0,-1,-0.3%
CC[C@]12c3[nH]c4ccc(OC)cc4c3CCN1C(=O)C(CC(=O)NCC13CC4CC(CC(C4)C1)C3)C[C@@H]2C(=O)N1CCN(C(=O)C2CC2)CC1 (stereo partly specified),/,/,-16%,4.0,5,1.9%
Cc1nn(-c2ccccc2)c(Cl)c1/C=N/N1CCN(c2ccccn2)CC1,-14%,-7.2,-2%,-0.4,-6,/
Cc1cccc(N2CCN(C(=O)CN3C(=O)CSc4c3c(C)nn4-c3ccccc3)CC2)c1C,/,/,/,-0.6,-13,-2.0%
